High-throughput results from PubChem.
StopGo RLuc: Primary qHTS Assay for Foot and Mouth Disease Virus Antivirals against NCGC Sytravon and CBC Compound Libraries: Renilla Luciferase Signal; HEK cells with a luciferase reporter of 2A StopGo recoding; Potency, µM (doses to about 57.5 µM), for inactives: at the highest dose signal change, negative = less light; 120,000 tested, 0.32% active; AID 1745857, 2022; active means well fitted falling curve with a large enough effect; inconclusive means small, poorly fitted or top-dose-only effect; inactive means no such curve, though single readings can be large or run the other way; further: nearly all actives have a fitted effect of over 55% in size; overnight with compound
2A firefly: Primary qHTS Assay for Foot and Mouth Disease Virus Antivirals against NCGC Sytravon and CBC Compound Libraries: Firefly Luciferase Signal. HEK cells with a luciferase reporter of 2A StopGo recoding. Potency, µM (series often up to 57.5 µM), inactives show at the top dose signal change, negative = less light. 120,000 tested, 0.23% active. AID 1745856, 2022; active = well fitted falling curve with a large enough effect; inconclusive = small, poorly fitted or top-dose-only effect; inactive = no such curve, though single readings can be large or run the other way; further: nearly all actives have a fitted effect of over 60% in size; overnight with compound
Starred values were filed as active, the others as inactive; ? = inconclusive; & = joins results of further samples; [ ] = another dose, or the depositor's remark. On the % scale 0 is the no-effect control and ±100 the full control effect; potency means the concentration at half of the fitted maximal effect. Some of the compounds tested; rates above refer to the full screens.

SMILES	StopGo RLuc	2A firefly
CC(C)(C)C(=O)c1cn(CCOc2ccc(F)cc2)c2ccccc12	6%	35%[activator]
O=C(Cn1ccc2c(Cl)cccc21)NCc1ccccc1	2%	20%
CC(C)c1ccc(C(N)=O)cc1	2%	0%
COc1ccc2c(CNCCc3ccc(SC)cc3)c(C(=O)O)n(Cc3ccc(F)cc3)c2c1	-2%	-38%
CN(C)C(=O)CCS(=O)(=O)Cc1coc(-c2cccc(F)c2)n1	-1%	4%
Cc1ccccc1C(=O)NC1CCC(C(F)(F)F)CC1 (configuration not stated)	10%	149%[activator]
O=C(CCc1ncc(-c2ccccc2F)o1)Nc1ccc(Cl)cc1	-7%	11%
Cc1c(-c2ccccc2)oc2c(C(=O)OCC(=O)Nc3ccc(C(N)=O)cc3)cccc2c1=O	-3%	-9%
Cc1cc(=O)oc2cc(OC(C)C(=O)NCc3cccnc3)c(Cl)cc12 (configuration not stated)	0%	11%
Cc1ccc(C)c(C(=O)COC(=O)CCSc2ccc(Cl)cc2)c1	5%	7%
OC1C2(c3ccccc3)CN3CN(C2)CC1(c1ccccc1)C3 (configuration not stated)	19%	24%
O=C(Nc1ccc(Br)cc1C(=O)c1ccccc1Cl)c1ccc(Br)cc1	10%	3%
c1ccc(Oc2cc(CNc3ncccn3)ccn2)cc1	-8%	42%[activator]
O=C(CCc1ncc(-c2ccc(F)cc2)o1)NCCc1ccc(F)cc1	-8%	1%
O=C(COC(=O)c1ccc(=O)n(Cc2ccccc2)n1)NCC(F)(F)F	51%[activator]	75%
COc1ccc(-c2nc3sc(CCNC(=O)c4cccc(C(F)(F)F)c4)c(C)n3n2)cc1	4%	406%[activator]
Cc1ccc(S(=O)(=O)CC(=O)c2ccc(Cl)c(Cl)c2)cc1	97%[activator]	14%
N#Cc1ccnc(N2CCN(C(=O)Nc3ccccc3F)CC2)c1	10%	0%
CCOC(=O)COc1ccc2c(=O)c(Oc3ccc(C(=O)OC)cc3)c(C)oc2c1	-6%	3%
NC(N)=N/N=C/c1ccc(Cl)cc1Cl	12%	0%
C=C(C)c1cccc(C(C)(C)NC(=O)NCCc2ccccc2)c1	6%	0%
CSc1nccc(-c2ccc(C)c(C)c2)n1	-3%	144%[activator]
O=C(O)C(NCc1ccco1)c1c[nH]c2ccccc12 (configuration not stated)	13%	17%
COc1ccccc1NC(=O)N(C)CCc1noc(C(=O)NCc2ccccc2)n1	12%	16%
Cc1cc2c(cc1S(=O)(=O)Nc1ccc(C(C)C)cc1)OCCN2C	266%[activator]	10%
CCc1ccc(NC(=O)C2CCN(c3nc(-c4ccc(OC)cc4)no3)CC2)cc1	0%	-23%
Cc1cc(-c2ccc(NC(=O)CC#N)c(C)c2)ccc1NC(=O)CC#N	6%	-5%
CCc1ccc(NC(=O)c2sc3nc4c(cc3c2N)CN(CC)CC4)cc1	?	-20%
COC(=O)c1ccc(COC(=O)/C=C/c2ccc(OCC#N)c(OC)c2)cc1	1%	18%
N#C/C(=C\c1cccn1-c1ccccc1)c1ccccc1	5%	33%[activator]
Cc1ccc(C(=O)C(C)n2c(N3CCOCC3)nc3c2c(=O)n(C)c(=O)n3C)cc1 (configuration not stated)	-5%	6%
CCOC(=O)C1(C)C=C(Nc2ccccc2)C(=O)N1c1ccccc1 (configuration not stated)	-18%	75%[activator]
COCCn1cnnc1SCc1nc2cc(Cl)ccc2n1Cc1ccccc1	-5%[1.06 µM]	10%
O=S(=O)(c1ccc2ccccc2c1)n1nc(-c2ccco2)nc1NCc1ccc(F)cc1	227%[activator]	19%
O=C(Cn1ccc2cc(Cl)ccc21)N1CCCCCC1	24%	0%
CC(C)CNC(=O)c1ccc2c(=O)n(CCc3ccccc3)c(SCC#N)nc2c1	0%	-8%

Structural class: those above containing a furan ring, fused or not (2)
SMILES	StopGo RLuc	2A firefly
O=C(O)C(NCc1ccco1)c1c[nH]c2ccccc12 (configuration not stated)	13%	17%
O=S(=O)(c1ccc2ccccc2c1)n1nc(-c2ccco2)nc1NCc1ccc(F)cc1	227%[activator]	19%

Next section
SMILES	StopGo RLuc	2A firefly
CC(C)NC(=O)c1ccc(C=O)cc1	3%	-3%[11.5 µM]
CC(=O)Nc1ccc(NC(=O)CCSC2CCc3ccccc3NC2=O)cc1 (configuration not stated)	-5%	-2%
Cc1ccc(NC(=O)CCn2nc(C)c(S(=O)(=O)N3CCCCC3)c2C)cc1Cl	76%[activator]	-25%
Cc1c(Cl)cccc1NC(=O)CCNC(=O)CCC(=O)c1cccs1	-2%	1%
CCC(C)NC(=O)C1=Cc2sc3c(c2CS1)CCCC3 (configuration not stated)	6%	0%
Cc1ccc(COc2ccccc2C2C3=C(CC(C)(C)CC3=O)OC3=C2C(=O)CC(C)(C)C3)cc1	9%	7%
COc1ccc(CNS(=O)(=O)c2cc3c(cc2C)N(C)CCO3)cc1	67%[activator]	7%
COc1cccc(-n2c(SCC(=O)Nc3cccc(Cl)c3)nc3c(oc4ccccc43)c2=O)c1	-12%	-15%
CCCOc1ccc(C(=O)Nc2cccc3cccnc23)cc1	28%	176%[activator]
Cc1c(Cl)cccc1NC(=O)C(CCS(C)(=O)=O)N1Cc2ccccc2C1=O (configuration not stated)	2%	-25%
CC(C)CCN(Cc1ccco1)C(=O)c1cc2c(Cl)nc3ccccc3c2s1	12%	0%
COc1nc2ccccc2nc1N1CCC(C(=O)Nc2ccc(C)cc2)CC1	-18%	-19%
CCCCn1c(=O)[nH]c(=O)c2c1nc(CN1CCN(S(=O)(=O)c3ccc(C)cc3)CC1)n2C	-1%	-10%
Cc1ccccc1C(=O)N1CCN(c2ccc(NC(=O)c3ccc4c(c3)OCCO4)cc2)CC1	16µM*	?
CC(=O)Nc1c(C(=O)Nc2ccccc2F)oc2ccccc12	12%	0%
COc1ccccc1N1CCN(CC(O)COc2cc(C)cc(C)c2)CC1 (configuration not stated)	-16%	-7%
Cc1ccc2c(ccn2CCC(=O)Nc2nnc(C(C)C)s2)c1	-12%	-3%
CN1CCOC(CNC(=O)Cc2cccc(F)c2)C1 (configuration not stated)	-9%	0%
O=S(=O)(Nc1ccc2cn[nH]c2c1)c1ccc(Cl)c(Cl)c1	165%[activator]	6%
CCOC(=O)CSc1nc2ccc(NC(=O)c3ccccc3F)cc2s1	-1%	25%
Cc1c(NC(=O)c2ccccc2)cc(C(C)C)c(O)c1S(=O)(=O)c1ccc(Cl)cc1	-6%	100%[activator]
CCOCCCN(C(=O)Nc1ccc(Cl)cc1)C1CCN(C(C)=O)CC1	-10%	5%
CCc1ccc(NC(=O)CN2C(=O)C(c3ccc(Cl)cc3)=NC23CCCCC3)cc1	5%	0%
COc1ccc(-c2nnc(CN3CCCC3c3cccn3C)o2)cc1 (configuration not stated)	-8%	6%
CN(C(=O)COC(=O)c1csc(NCc2ccccc2)n1)c1ccccc1	-11%	-4%
Cc1ccccc1NC(=O)c1nc(-c2ccccc2)oc1C	6%	31%[activator]
CCCS(=O)(=O)c1ncc(Cl)c(C(=O)Nc2scc(-c3ccccc3)c2C(=O)OCC)n1	-24%	12%
CC(CNC(=O)C1CCN(C(=O)N2CCOc3ccc(Cl)cc32)CC1)c1ccccc1 (configuration not stated)	38%[activator]	-9%
CC(C)(C)OC(=O)NCC(=O)O	-11%[1.06 µM]	6%
Cc1ccc(NC(=O)c2ncoc2-c2ccco2)cc1Cl	21%&1%	143%&105%[activator]
NS(=O)(=O)c1cccc(NC(=O)c2cn(Cc3ccccc3)nc2-c2ccccc2)c1	15%	-16%
CC(=O)SC[C@@H](C)C(=O)N1CCC[C@H]1C(=O)N[C@@H](Cc1ccccc1)C(=O)O	-12%	-11%[11.5 µM]
O=C1CCCC2=C1C(c1cc(Cl)c(O)c(Cl)c1)C1=C(CCCC1=O)O2	37%[activator]	3%
COC(=O)c1ccccc1NC(=O)c1cnn(-c2ccc(F)cc2)c1-n1cccc1	0%	14%
CCOc1ccc(S(=O)(=O)N(CC)CC(=O)NCC2CCCO2)cc1 (configuration not stated)	-1%	-2%
CCOC(=O)c1nnn(CC(=O)Nc2cc(C)cc(C)c2)c1C(=O)OCC	1%	13%

Overlap with the part before: 6 entries, then new ones.
SMILES	StopGo RLuc	2A firefly
NS(=O)(=O)c1cccc(NC(=O)c2cn(Cc3ccccc3)nc2-c2ccccc2)c1	15%	-16%
CC(=O)SC[C@@H](C)C(=O)N1CCC[C@H]1C(=O)N[C@@H](Cc1ccccc1)C(=O)O	-12%	-11%[11.5 µM]
O=C1CCCC2=C1C(c1cc(Cl)c(O)c(Cl)c1)C1=C(CCCC1=O)O2	37%[activator]	3%
COC(=O)c1ccccc1NC(=O)c1cnn(-c2ccc(F)cc2)c1-n1cccc1	0%	14%
CCOc1ccc(S(=O)(=O)N(CC)CC(=O)NCC2CCCO2)cc1 (configuration not stated)	-1%	-2%
CCOC(=O)c1nnn(CC(=O)Nc2cc(C)cc(C)c2)c1C(=O)OCC	1%	13%
CCOc1cccc(C(=O)Nc2cc(C)c(O)c(-c3nc4ncccc4o3)c2)c1	-11%	-11%
O=S(Cc1ccccc1)Cc1cccc(C(F)(F)F)c1 (configuration not stated)	22%	2%
Cc1cc(=O)n2c(C(=O)Nc3cccc(Cl)c3)c(C(=O)Nc3ccccc3)sc2n1	-1%	22%
CCOC(=O)c1ccccc1NC(=O)CSc1nc2cn(CC)nc2c(=O)n1Cc1ccc(Cl)cc1	-9%	-2%
C/C(=N\O)c1cccs1	12%	26%
CCOc1nc2ccccc2nc1N1CCC(C(=O)Nc2cccc3ccccc23)CC1	-7%	-6%
COc1ccc(-c2cccc(NS(=O)(=O)c3ccc(C)s3)c2)nn1	230%[activator]	-2%
COc1cc(NC(=O)CSc2nc3nc(C)c(Cc4ccc(C)cc4)c(C)n3n2)cc(OC)c1	13%	-6%
CC(=O)Nc1ccc(NC(=O)C(NC(=O)C2CCC(C)CC2)C(C)C)cc1 (configuration not stated)	-9%	13%
CCOCCCn1c(=N)c(C(=O)NCc2ccccc2)cc2c(=O)n3ccccc3nc21	5%	-4%
Cc1nn(C)c2c1c(-c1ccccc1)cc(=O)n2C(C)C(=O)NCCc1ccc(Cl)cc1 (configuration not stated)	-23%	-24%
Cc1nc(SCc2csc(Cc3ccc(Cl)cc3)n2)sc1CC(N)=O	?	-25%

Record cards (already shown). Values in the order: StopGo RLuc | 2A firefly
Cc1nc(SCc2csc(Cc3ccc(Cl)cc3)n2)sc1CC(N)=O in the list: ? | -25%
CC(=O)Nc1ccc(NC(=O)C(NC(=O)C2CCC(C)CC2)C(C)C)cc1 (configuration not stated) in the list: -9% | 13%

Going on with the list:
SMILES	StopGo RLuc	2A firefly
Clc1ccc(-c2cnc(-c3ccncc3)o2)cc1	10%	3%
CC(C(=O)NCCN1CCCC1)C1CCN(C(=O)c2ccc3nc(-c4ccccc4)oc3c2)CC1 (configuration not stated)	-13%	78%[activator]
CC1CC1C(=O)NCCC(=O)Nc1cccc(C#N)c1 (configuration not stated)	8%	0%
COc1ccccc1CNc1nc(-c2ccco2)nn1C(=O)c1cc(OC)c(OC)c(OC)c1	-11%	33%[activator]
COc1ccccc1-c1cc(C(=O)Nc2cc(OC)c(OC)c(OC)c2)no1	13%	-4%
Cc1ccc(NC(=O)C2CCCN(c3nc4ccccc4s3)C2)c(C)c1 (configuration not stated)	-1%	9%
O=C(COc1ccc2oc3c(c2c1)CCCC3)Nc1ccc(Br)cc1	-13%	-2%
O=C(Nc1ccccc1C(=O)OCc1cc(=O)n2nc(C3CC3)sc2n1)c1cccc(Cl)c1	-10%	-12%
Cc1ccc(NC(=O)C(Cc2c[nH]c3ccccc23)NC(=O)OCC(C)C)cc1 (configuration not stated)	232%[activator]	-18%
COc1ccccc1/C=C/c1nc(C#N)c(NCCc2ccccc2)o1	19%	0%
CCCS(=O)(=O)N1CC(=O)N(c2cc(C)cc(C)c2)C(C)(C(=O)NC2CCCCCC2)C1 (configuration not stated)	-10%	-8%
COc1ccc(C(=O)N2CCN(Cc3cc(=O)oc4cc(C)ccc34)CC2)c(OC)c1	-2%	-4%
Cc1ccc(C)c(S(=O)(=O)c2nnn3c2nc(NC2CCCC2)c2sccc23)c1	0%	-23%
Fc1ccc(-c2csc(Nc3ccccc3)n2)cc1	-8%	170%[activator]
COc1ccc(CNC(=O)Cc2c(C)c3c(cc(C)c4c(C)c(C)oc43)oc2=O)cc1	-5%	1%
COc1cc(C(=O)NC2CCCNC2)cc(OC)c1OC (configuration not stated)	-5%	28%[11.5 µM]
COc1cccc(NC(=O)c2ccc(-c3nc(COc4ccccc4)c(C)o3)cc2)c1	?	?
O=C(CN1C(=O)COc2ccc(S(=O)(=O)N3CCOCC3)cc21)Nc1ccc(F)c(Cl)c1	39%[activator]	0%
CCN(CC)C(=O)Cn1c(=O)cc(C)c2c(C)nn(C)c21	-2%	4%
O=C(Nc1cccs1)Nc1cc(C(F)(F)F)ccc1Cl	-2%	0%
Cc1oc2ccc(O)c(CN3CCCCC3C)c2c1C(=O)Nc1ccccc1 (configuration not stated)	-20%	-24%
CCn1nc(C(=O)Nc2cccc(S(=O)(=O)N3CCCCCC3)c2)c2ccccc2c1=O	80%[activator]	3%
NC(=O)NC(=O)CN1CCCC(c2nc3ccccc3o2)C1 (configuration not stated)	53%[activator]	98%[activator]
COc1cc(OC)c(NC(=O)Cn2nc(C)n3cccc3c2=O)cc1Cl	25%	0%
CC(NC(=O)/C(=C/c1cccc(Br)c1)NC(=O)c1ccco1)C(=O)O (configuration not stated)	-18%	7%
COc1cc(OC)cc(C(=O)Nc2nc(-c3nnn(-c4ccc(C)cc4)c3C)ns2)c1	45%[activator]	86%[activator]
CC(CNC(=O)CCC1CCCC1)NC(=O)CCC1CCCC1 (configuration not stated)	-6%	-13%
